# KCNQ2 block: KCNQ2 channel blockers in CHO-K1 cells – cell-based, FluxOR thallium flux, B-score, primary screen (AID 2156) | O88943 | 1.1% of 310,000 active | B-score at 10 µM | 20 min; stronger effect = lower value; only compounds with negative scores are shown here; some inactives read as strong as hits;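 active = fluorescence ratio B-score at most minus 3 library SDs, with starting brightness B-score within 2 library SDs, cut at about -5.5 in these data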
# Target sequence (O88943 whole entry, looked up): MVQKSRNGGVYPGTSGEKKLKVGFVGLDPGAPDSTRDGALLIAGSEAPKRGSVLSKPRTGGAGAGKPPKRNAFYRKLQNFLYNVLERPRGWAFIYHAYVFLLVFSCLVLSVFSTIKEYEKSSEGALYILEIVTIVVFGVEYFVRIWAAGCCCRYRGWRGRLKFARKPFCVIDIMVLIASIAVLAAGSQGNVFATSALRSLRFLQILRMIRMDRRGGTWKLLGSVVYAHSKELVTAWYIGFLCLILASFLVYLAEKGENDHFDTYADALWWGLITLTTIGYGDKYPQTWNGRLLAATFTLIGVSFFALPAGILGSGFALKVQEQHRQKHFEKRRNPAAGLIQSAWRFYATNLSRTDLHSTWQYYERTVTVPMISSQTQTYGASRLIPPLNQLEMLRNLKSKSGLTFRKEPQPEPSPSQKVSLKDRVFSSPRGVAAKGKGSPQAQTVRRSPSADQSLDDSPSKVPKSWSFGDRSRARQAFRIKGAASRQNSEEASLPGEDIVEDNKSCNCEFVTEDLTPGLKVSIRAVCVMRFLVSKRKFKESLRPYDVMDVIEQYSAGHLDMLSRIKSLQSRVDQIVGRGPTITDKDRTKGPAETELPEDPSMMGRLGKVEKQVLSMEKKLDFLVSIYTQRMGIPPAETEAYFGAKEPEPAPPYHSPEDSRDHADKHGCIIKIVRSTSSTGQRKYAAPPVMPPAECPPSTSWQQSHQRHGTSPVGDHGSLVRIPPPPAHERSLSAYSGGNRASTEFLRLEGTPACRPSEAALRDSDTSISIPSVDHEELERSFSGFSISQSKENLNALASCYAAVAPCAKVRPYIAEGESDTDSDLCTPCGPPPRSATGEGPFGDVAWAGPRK
# KCNQ2 block baseline: also measured in KCNQ2 block; calls as there; B-score; measured here: initial fluorescence intensity artifact check;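 brightness before thallium and not channel activity; 0 = typical well and far values either way flag optical interference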
# Active calls of the source: *; i = inactive.
molecule | KCNQ2 block | KCNQ2 block baseline
Cc1ccc2c(c1)N(CC(=O)N1CCN(c3nc4ccccc4s3)CC1)C(=O)C(C)O2 (configuration not stated) | i | 1
CCCCCCCc1n[nH]c(=S)n1Cc1ccccc1 | i | 1.3
CC(=O)c1ccc(NC(=O)c2cc3ccccc3o2)cc1 | i | 1.1
O=c1c2ccccc2nc2n1CCS2(=O)=O | i | 0.01
CCCOC(=O)Nc1ccc(C(N)=O)cc1 | i | 1.3
COc1cccc(NC(=O)N2CCN(S(C)(=O)=O)CC2)c1 | i | -0.35
CC(=O)c1cc2c(cc1NC(=O)CN1CCCCCC1)OCO2 | i | -1.1
O=C(c1ccc(Cl)cc1)[C@@H]1[C@@H]2C(=O)N(c3cccc4ccccc34)C(=O)[C@@H]2C2c3ccccc3C=NN21 (some centres not stated) | i | -0.57
O=C(C1CCCN(S(=O)(=O)c2ccccc2)C1)N1CCCc2ccccc21 (configuration not stated) | i | -1.3
O=C1c2[nH]nc(-c3ccccc3O)c2C(c2ccccc2)N1Cc1ccco1 (configuration not stated) | i | 0.2
CC(=O)c1ccc(O)c(CC=C(C)C)c1 | i | -0.67
COc1ccc(OC)c(C2=C/C(=C/c3ccccn3)C(=O)O2)c1 | i | 2.2
CCC(Cc1ccccc1)NC(=O)c1ccc2nc(N3CCOCC3)sc2c1 (configuration not stated) | i | -0.36
CC(C)(C)c1nnc2sc(SCC(=O)N3CCCc4ccccc43)nn2c1=O | i | -0.52
C=CCN1C(=O)C2(OCCCO2)c2cc(CCCC)ccc21 | i | -0.85

molecule | KCNQ2 block | KCNQ2 block baseline
Cc1nc2cc(C(=O)OCC(=O)Nc3cccc(Cl)c3)ccc2n1-c1ccccc1 | i | -0.67
COc1ccc2c(c1)c(=O)cc(-c1ccccc1)n2C | i | 0.9
Cc1nn(C)c(C(=O)N2CCN(C(=O)c3ccco3)CC2)c1[N+](=O)[O-] | i | -0.02
COc1ccc(-c2cc3nc4c(c(N5CCC6(CC5)OCCO6)n3n2)CCC4)cc1 | i | 0.49
N#CC1=C(O)CCCn2c1nc1ccccc1c2=O | i | 0.14
CCOc1ccc(C2CC(c3cccc(OC)c3)n3nc(N)nc3N2)cc1 (configuration not stated) | i | 0.11
COc1ccc(SCC(=O)Nc2ccccc2Cl)cc1 | i | 0.63
Cc1ccc2nc(-c3cc(-c4ccccc4)no3)cn2c1 | i | -1.6
O=C(Nc1ccc2oc(-c3cccnc3)nc2c1)c1ccc(Br)o1 | i | 0.65
CC(C)CC(=O)N1CCC(O)(CS(=O)(=O)c2ccc(Cl)c(Cl)c2)CC1 | i | 1.6
COc1ccc(C(C)C)cc1S(=O)(=O)N1CCN(c2ccccc2)CC1 | i | 0.09
CN(C(=O)CCc1nnc(Cc2ccc(-c3ccccc3)cc2)o1)C1CCOCC1 | i | 3.9
NC(Cc1ccc2nonc2c1)C(=O)O (configuration not stated) | i | -0.09
O=C(CSc1ccc(-c2ccccn2)nn1)Nc1ccc(F)c(F)c1 | i | 0.93
Cc1nc2ccccn2c1C(=O)N/N=C/c1ccccc1[N+](=O)[O-] | i | 0.04

# Compounds shown so far containing an aryl thioether with sulfur outside any ring:
molecule | KCNQ2 block | KCNQ2 block baseline
CC(C)(C)c1nnc2sc(SCC(=O)N3CCCc4ccccc43)nn2c1=O | i | -0.52
COc1ccc(SCC(=O)Nc2ccccc2Cl)cc1 | i | 0.63
O=C(CSc1ccc(-c2ccccn2)nn1)Nc1ccc(F)c(F)c1 | i | 0.93

# More entries:
molecule | KCNQ2 block | KCNQ2 block baseline
CCN1CCN(c2c(S(=O)(=O)c3ccc(C)c(C)c3)cnc3ccc(F)cc23)CC1 | i | -0.06
Cc1ccc(CN2CCN(Cc3c(C)nn(C(C)C)c3C)CC2CCO)o1 (configuration not stated) | i | 0.38
CCOC(=O)C1CCN(Cc2ccccc2C)CC1 | i | 2.3
COc1ccc2[nH]c(=S)[nH]c2c1 | i | -0.16
CCOc1cccc(-c2cc(=O)[nH][nH]2)c1 | i | 0.08
Cc1ccc2nc(NCc3ccccc3)c(C=NCc3ccccc3)c(=O)n2c1 | i | 0.34
COc1ccc(-n2nc(C(=O)N(C)C3CCCCC3)c3ccccc3c2=O)c(OC)c1 | i | 0.34
COc1ccc(/C=C2/SC(=O)N(CCC(=O)Nc3ccccc3)C2=O)cc1OC | i | 1.7
COc1ccc(NC(=O)CSc2n[nH]c(=O)n2Cc2ccccc2)cc1Cl | i | 0.01
COc1cc(C(C(=O)NC2CCCCC2)N(C(=O)Cc2c[nH]c3ccccc23)c2ccc(C)cc2)cc(OC)c1OC (configuration not stated) | i | 2.2
O=C(O)CCCN1C(=O)/C(=C\C(Cl)=C\c2ccccc2)SC1=S | i | -0.36
COc1cnc(-c2ccccn2)nc1Oc1c(C)cccc1C | i | -0.4
CCc1ccc(NC(=O)c2cnn3c(C(F)F)cc(C)nc23)cc1 | i | -0.04
CC1(C)OC(C(=O)NC2CCCCC2)C(C(=O)NC2CCCCC2)O1 (configuration not stated) | i | 0.72
Cc1ccc([N+](=O)[O-])cc1N(CC(=O)NC1CCCC1)S(C)(=O)=O | i | -0.02

molecule | KCNQ2 block | KCNQ2 block baseline
CSc1nc2sc3c(c2c(=O)n1C)CCC(C)C3 (configuration not stated) | i | -0.54
CCc1ccc(NC(=O)COC(=O)/C(=C/c2ccccc2OC)c2ccccc2)cc1 | i | 0.62
CCn1nc(C)c(CNC(=O)C2CCC(=O)N(Cc3ccc(Cl)cc3)C2)c1C (configuration not stated) | i | -0.6
CCOCCCn1c(=N)c(S(=O)(=O)c2ccc(C)cc2)cc2c(=O)n3cc(C)ccc3nc21 | i | 1.5
CCC(C)[C@H](NC(=O)[C@@H]1CSC2c3ccccc3C(=O)N21)C(=O)NCc1ccco1 (some centres not stated) | i | -1.3
Cc1ccsc1C(=O)NC(C)c1ccccc1 (configuration not stated) | i | -0.31
Cc1cc(C)c(OCC(=O)N/N=C/c2ccc3c(c2)OCO3)c(C)c1 | i | 0.45
CNC(=S)NNC(=O)c1cccn(Cc2cccc(Cl)c2)c1=O | i | 2.5
CCOC(=O)n1cc(C(=O)c2ccccc2O)cn1 | i | 1.2
COc1ccc(Nc2ccc(OC)cc2)cc1 | i | -1.6
CC(=O)Nc1nc2cc3c(cc2s1)OCCO3 | i | 0.4
C=CCn1c(C(C)NC(=O)c2ccccc2)n[nH]c1=S (configuration not stated) | i | 1.1
COCc1c(C(=O)NC2CCCCCC2)oc2ccccc12 | i | -0.26
Cc1cc(C(=O)OC(C)C(=O)Nc2nc(-c3ccccc3)cs2)c(C)o1 (configuration not stated) | i | -0.07
CC(=O)/C(N=Nc1cc2c(cc1[N+](=O)[O-])OCCO2)=C(\C)O | i | 1.2

# The final 5 records of the section before open the next one:
smiles	KCNQ2 block	KCNQ2 block baseline
CC(=O)Nc1nc2cc3c(cc2s1)OCCO3	i	0.4
C=CCn1c(C(C)NC(=O)c2ccccc2)n[nH]c1=S (configuration not stated)	i	1.1
COCc1c(C(=O)NC2CCCCCC2)oc2ccccc12	i	-0.26
Cc1cc(C(=O)OC(C)C(=O)Nc2nc(-c3ccccc3)cs2)c(C)o1 (configuration not stated)	i	-0.07
CC(=O)/C(N=Nc1cc2c(cc1[N+](=O)[O-])OCCO2)=C(\C)O	i	1.2
COc1cc(-c2nc(CN(C)Cc3nnc(C)o3)c(C)o2)ccc1F	i	-1.7
N#CCCSc1nc(N2CCOCC2)c2c(c1C#N)CCCC2	i	-0.07
Cc1ccc(C(C)C)c(OCc2ccc(C(=O)N/N=C/c3ccc(C(=O)O)cc3)cc2)c1	i	-0.04
CCCOP(=O)(c1ccc(N(C)C)cc1)C(O)c1ccc(Cl)cc1Cl (configuration not stated)	i	0.12
CCOc1ccc(OCCC(=O)OCC(=O)NNC(=O)c2ccccc2)cc1	i	1.8
CCc1noc(C)c1C(=O)Nc1nc(-c2ccc(Cl)cc2Cl)cs1	i	0.33
C#CCSC1=C(C#N)C(c2cccs2)C(C(=O)OCC)=C(C)N1 (configuration not stated)	i	-1.4
S=c1[nH]nc(C2CCCCC2)n1Cc1ccccc1	i	1.1
COc1c(C)oc2cc(O)ccc2c1=O	i	0.41
O=C1CC(N2CCN(c3cccc(C(F)(F)F)c3)CC2)C(=O)N1c1ccccc1 (configuration not stated)	i	-1.7
Cc1cc(C)n2nc(CNS(=O)(=O)c3ccc(F)cc3)nc2n1	i	0.51
Cc1c(CCC(=O)NCCCn2ccnc2)c(=O)oc2c(C)c3occ(C(C)(C)C)c3cc12	i	2.2
O=C1COc2ccc(C(=O)COc3ccc([N+](=O)[O-])cc3)cc2N1	i	1.4
O=C(CCn1c(=S)[nH]c2ccccc2c1=O)Nc1ccc(F)cc1	i	0.34
CCOC(=O)c1c(NC(=S)Nc2ccc(F)cc2)sc2c1CCC2	-7*	0.72*
NC(=O)/C(=C\c1cccnc1)NC(=O)c1ccccc1	i	-0.89
COc1ccc2c3c1O[C@H]1C[C@@H](O)C=C[C@@]31CCN(C)C2	i	-0.15
CCN1CCN(c2ccc([N+](=O)[O-])cc2C(=O)c2ccc(Cl)cc2)CC1	i	-1.4
O=C(CC1C(=O)NCCN1Cc1c(F)cccc1Cl)NC1CCCC1 (configuration not stated)	i	0.16
CC(OC(=O)/C=C/c1ccc(Br)cc1)C(=O)N1CCOCC1 (configuration not stated)	i	0.81

smiles	KCNQ2 block	KCNQ2 block baseline
COc1ccccc1NC(=O)c1ccc2[nH]c(C)c(C)c2c1	i	0.01
S=C(Nc1ccc(Cl)c(Cl)c1)NC1CCCCC1	i	0.72
COc1ccccc1CN1CC(C(=O)N2CCC(OC)CC2)CCC1=O (configuration not stated)	i	0.08
Cc1ccc(N(C(=O)c2ccco2)C(C(=O)NC2CCCC2)c2cccnc2)cc1 (configuration not stated)	i	0.43
Cc1occc1C(=O)N/N=C/C1=C(N2CCOCC2)C(=C\c2ccc(Cl)cc2Cl)/CC1	i	0.02
CC(C)CS(=O)(=O)C1=NSC2=NC(=O)/C(=C\c3ccc(OC(=O)c4ccco4)cc3)C(=N)N21	i	0.62
Cc1ccc(NC(=O)Nc2cc(C)on2)cc1	i	2.9
COc1ccc(N(C)C2=NS(=O)(=O)c3ccccc32)cc1	i	-0.02
O=C(NCC(=O)N(c1cccnc1)C(C(=O)NC1CCCCC1)c1ccccc1F)c1ccco1 (configuration not stated)	i	-0.03
CC(C)C[C@H](NC(=O)c1nc[nH]c1C(=O)N1CCN(C(=O)OC(C)(C)C)CC1)C(=O)OCc1ccccc1	i	-1.1
Cc1cc(NC(=O)CCCC(=O)NCc2cccs2)no1	i	3.2
Cc1c(Cl)ccc2c(C(=O)NC(C)c3ccncc3)cc(-c3ccncc3)nc12 (configuration not stated)	i	-0.51
CCOC(=O)C1CCN(c2cc3c(cc2NC(=O)c2ccccc2)n(C)c(=O)n3C)CC1	i	0.63
Nc1c(N(CCC2=CCCCC2)C(=O)C2CC2)c(=O)[nH]c(=O)n1Cc1ccccc1	i	-1.2
CC(C)CN(C(=O)COC(=O)C12CC3CC(CC(O)(C3)C1)C2)C1CCS(=O)(=O)C1 (configuration not stated)	i	0.18
Cc1ccc(C(=O)OCC(=O)Nc2ccc(S(N)(=O)=O)cc2)c(O)c1	i	1.4
Cc1c(-n2cc(C(=O)c3cc(F)ccc3O)cc(C#N)c2=O)c(=O)n(-c2ccccc2)n1C	i	-0.02
CS(=O)(=O)NCCSCc1ccccc1	i	0.74
CCOC(=O)c1c(NC(=S)N2CCOCC2)sc2c1CCN(C(=O)OCC)C2	i	-0.72
COc1ccc2[nH]c(C(=O)NCCN3CCOCC3)cc2c1	i	-0.03

smiles	KCNQ2 block	KCNQ2 block baseline
CCNc1nc(OCC)nc(N2CCC(Cc3ccccc3)CC2)n1	i	-1.8
Cc1ccc(-c2nc3c(c(=O)c4ccccc4n3C)c(=O)n2Cc2ccco2)cc1	i	-2.1
CCCCCCc1nc2ccccc2c(=O)n1NC(=O)c1c(O)c2c(n(CC(C)C)c1=O)CCCC2	i	0.27
CC(=O)c1cccc(CN2CCCC(N3CCN(c4ccccc4F)CC3)C2)c1 (configuration not stated)	i	-0.23
CC(=O)c1ccc(OC(=O)c2cc3ccccc3oc2=O)cc1	i	0.98
CC[C@H](CO)Nc1nc(Nc2cccc(Cl)c2)c2ncn(C(C)C)c2n1	i	-1.1
Cc1cc(NC(=O)COc2ccccc2C)ccc1NC(=O)c1cccs1	i	0.17
CSc1ccc(/C=N/NC(=O)CN2CCN(Cc3ccc(C)cc3)CC2)cc1	i	-0.89
CCOc1ccc(OCC(O)CN2CCc3ccccc3C2)cc1 (configuration not stated)	i	0.22
Cc1ccc(-c2cc(-c3ccccc3)nc(Cl)n2)cc1	-8.3*	0.03*
CC(=O)C1=C(O)C(=O)N(c2ccc(Br)cc2)C1c1ccc(Br)cc1 (configuration not stated)	i	0.98
CN(Cc1cn(C)c2ccccc12)C(=S)Nc1cc(F)cc(F)c1	i	0.15
Cc1ccccc1N=CC=C1OC(C)(C)C(C)(C)O1	i	-0.26
O=C(CN1C(=O)C2C3c4ccccc4C(c4ccccc43)C2C1=O)N1CCOCC1 (configuration not stated)	i	-0.74
Cc1cc(Br)ccc1OCC(=O)NNC(=O)CCc1ccccc1	i	-0.04
COc1ccc2ccccc2c1/C=N/NC(=O)c1cccc(C)c1	i	-1.3
COc1cccc(NC(=O)c2nn(C34CC5CC(CC(C5)C3)C4)cc2[N+](=O)[O-])c1	i	1.1
Cc1nc2nc(C)c(CCC(=O)NCCC3=CCCCC3)c(C)n2n1	i	-2
CCC(=O)c1ccc(OCC(O)Cn2nc(C)cc2C)cc1 (configuration not stated)	i	-2.1
CN1CCN(CCCNC(=O)Nc2ccc([N+](=O)[O-])cc2)CC1	i	1.2
COc1ccc(Cl)cc1-c1nc(-c2ccncc2)no1	i	2

# This is a subset. The share of hits here may be higher or lower than overall.
